# Bioassay records (PubChem BioAssay)
# RanGTP-Imp inh – disruptors of Ran-importin-beta complex formation – biochemical, FRET, CFP-Ran, YFP-importin-beta, homogeneous, primary screen. inhibition, % (no concentration beside the values). actives 1.1% (n = 300,000). cell-free CFP-Ran/YFP-importin-beta FRET ratio;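 active means most replicates above 15%; inconclusive means exactly half above 15%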;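 further: 0% = DMSO wells and 100% = Ran loaded with GDP instead of GTP; wells of about 40 µL received 100 nL stock; the first replicate is given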
# Beta2AR agonist – activates human beta-2 adrenergic receptor causing internalization; P07550; Am2.2-beta2AR cells, FAP receptor internalization, flow cytometry; reference of the scale not given here; response, % (no concentration beside the values); actives 0.43% (n = 340,000); AID 504454;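 active means response above a set limit, near 3 SD of response in nonfluorescent compounds, cut at about 42% in these data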;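 further: stock transfer was 100 nL into about 11 µL; a reference agonist was the positive control; negative values mostly stem from fluorescent compounds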
# LANA-H2B inh – blocks KSHV LANA binding to histone H2A/H2B | cell-free LANA-H2A/H2B peptide, fluorescence polarization | inhibition, % (concentration not given with the values) | actives 0.6% (n = 320,000); in the data active means inhibition mostly above about 10%, no sharp cut-off; inactive means mostly below about 6.7%;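 further: stock transfer was 7.5 nL into about 10 µL; 0% = median of vehicle wells and 100% = median of positive control wells; one replicate is shown; the record names a cut of 25% in any replicate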
# Target sequence (Q9QR71 whole entry, looked up): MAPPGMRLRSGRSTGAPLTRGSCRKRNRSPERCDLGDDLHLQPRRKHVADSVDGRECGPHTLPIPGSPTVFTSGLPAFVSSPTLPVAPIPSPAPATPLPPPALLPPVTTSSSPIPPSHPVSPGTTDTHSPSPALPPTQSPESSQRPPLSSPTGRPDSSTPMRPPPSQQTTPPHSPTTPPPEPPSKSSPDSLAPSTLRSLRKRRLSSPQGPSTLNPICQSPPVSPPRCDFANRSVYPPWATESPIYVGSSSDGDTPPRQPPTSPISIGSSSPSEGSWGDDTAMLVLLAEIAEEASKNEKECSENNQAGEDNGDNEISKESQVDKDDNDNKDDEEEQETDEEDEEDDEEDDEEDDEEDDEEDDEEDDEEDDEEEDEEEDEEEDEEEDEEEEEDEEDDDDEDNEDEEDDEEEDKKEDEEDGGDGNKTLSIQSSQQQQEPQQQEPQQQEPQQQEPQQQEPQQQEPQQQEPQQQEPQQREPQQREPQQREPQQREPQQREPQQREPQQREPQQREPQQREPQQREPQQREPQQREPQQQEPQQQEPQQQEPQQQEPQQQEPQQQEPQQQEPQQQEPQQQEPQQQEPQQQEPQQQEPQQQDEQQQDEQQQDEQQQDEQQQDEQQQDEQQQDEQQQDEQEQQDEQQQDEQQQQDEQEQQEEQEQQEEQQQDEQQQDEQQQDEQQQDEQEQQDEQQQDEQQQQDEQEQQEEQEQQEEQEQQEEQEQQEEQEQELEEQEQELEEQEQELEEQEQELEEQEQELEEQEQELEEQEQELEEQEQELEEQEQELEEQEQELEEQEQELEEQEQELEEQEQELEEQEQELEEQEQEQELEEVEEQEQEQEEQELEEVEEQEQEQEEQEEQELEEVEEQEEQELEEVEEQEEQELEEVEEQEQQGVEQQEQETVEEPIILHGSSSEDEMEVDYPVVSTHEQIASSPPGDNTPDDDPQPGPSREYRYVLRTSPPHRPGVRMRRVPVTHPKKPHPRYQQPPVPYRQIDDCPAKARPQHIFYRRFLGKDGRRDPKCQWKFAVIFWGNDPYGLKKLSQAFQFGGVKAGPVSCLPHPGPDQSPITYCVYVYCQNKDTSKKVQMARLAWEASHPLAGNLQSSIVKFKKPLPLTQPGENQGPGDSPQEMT
# Calb FLC – C. albicans growth modulation with fluconazole | C. albicans CaCi-2 (fluconazole-resistant clinical isolate) + fluconazole, Alamar Blue growth, 48 h | growth inhibition, % (no concentration beside the values) | actives 0.57% (n = 300,000);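 active means most replicates above 75%; inconclusive means exactly half above 75%; inactive means most below 75%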;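 further: all wells also contain fluconazole at 8 µg/ml as a sub-toxic cotreatment; 0% = median of DMSO wells and 100% = median of geldanamycin control wells; wells of about 8 µL received 7.5 nL stock; the first replicate is given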
# UCH37 inh – inhibitors of human deubiquitinating enzyme UCH37; Q9Y5K5; purified proteasome/UCH37, Ub-AMC cleavage fluorescence; inhibition, % (test concentration not listed); actives 0.33% (n = 330,000); AID 588478;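 active means mean of two replicates above 20%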;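 further: 0% = compound-free wells with enzyme and 100% = wells lacking proteasome; stock transfer was 100 nL into about 20 µL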
#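 System: Proteasome-associated human UCH37 deubiquitinase; Input: 0.15 nM proteasome in added enzyme buffer; Also added: Ub-AMC substrate from 1 µM stock; Incubation: 30 min compound-proteasome preincubation then 25 min substrate reaction, room temperature; Detection: fluorescence, ex 355 nm, em 460 nm; Read-out: % inhibition of Ub-AMC cleavage fluorescence; Benchmarks: no-proteasome and no-compound wells.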
# Beta cell apopt – beta cell apoptosis inhibition; actives 0.8% (n = 300,000); INS-1E cytokine-induced death, ATP luminescence, 48 h; percent of positive-control rescue, neutral wells zero; protection from apoptosis, % (no concentration beside the values); AID 435005;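 active means all replicates at 75% or more, or half of them and the mean; inconclusive means half reach 75% but not the mean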;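 further: 0% = cytokine-treated negative control wells and 100% = positive control rescue; higher means more ATP so stronger rescue from cytokine killing; wells of about 40 µL received 100 nL stock; the first replicate is given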
# T cruzi repl – blocks replication of Trypanosoma cruzi. actives 1.4% (n = 300,000). inhibition, % (test concentration not listed). AID 1885. T. cruzi beta-gal in NIH3T3, luminescence, 90 h;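 active means mean inhibition across valid replicates above about 55%, limit read from the data; inconclusive means mean below that limit but half or more replicates reach it; inactive means mean below it, under half of replicates reach it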;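 further: signal also drops with host cell toxicity which is not excluded here; 0% = plate median of DMSO wells and 100% = zero luminescence signal; higher percent means less beta-gal luminescence so fewer parasites; stock transfer was 50 nL into about 50 µL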
# Bfl-1 A1 inh – inhibitors of the anti-apoptotic protein A1, read as caspase activation. MEF A1-2A-BIM cells, Caspase-Glo 3/7 luminescence, 3 h; percent of clofoctol response, vehicle zero. caspase activation, % (test concentration not listed). actives 0.066% (n = 330,000);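 active means over half of replicate activation scores above 10%, or exactly half above 10 with the replicate mean above 10; inconclusive means replicate mean below 10 yet half the replicates above 10; inactive means over half of replicates below 10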;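 further: wells of about 30 µL received 50 nL stock; many hits fall short of the cut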
# Numbers without * were called inactive; i = inactive; ? = inconclusive; / = no result given.
mol	RanGTP-Imp inh	Beta2AR agonist	LANA-H2B inh	Calb FLC	UCH37 inh	Beta cell apopt	T cruzi repl	Bfl-1 A1 inh
O=C(OCC(=O)N1CCCC1=O)C1CCN(S(=O)(=O)c2ccc(Cl)c(C(F)(F)F)c2)CC1	/	-25	-6.3	/	2.3	-4	/	0.7
c1ccc(SCCOCCN2CCc3ccccc3C2)cc1	-1.2	6	-0.4	-39	1.8	4	?	-1.2
c1ccc(CCn2nnnc2C(c2cccnc2)N2CCN(c3ccccc3)CC2)cc1 (stereo not given)	1.5	-6	0.3	2	3.2	6	74*	-1.1
COC(=O)C1=C(C(=O)OC)[C@@H]2N(Cc3ccccc3)c3ccccc3[C@@]23C[C@@H](C(=O)OC)N(C(=O)c2ccc(Br)cc2)C3=N1	-6.4	2	-1.7	4	3.7	0	3	-0.1
O=c1cc(C(F)(F)F)[nH]c(=O)n1C1CCCCC1	0.7	5	1.8	43	1.4	-7	-13	0.4
Cc1cc(NC(=O)CSc2nnnn2-c2cc(Cl)ccc2C)no1	-2.1	-2	2.6	2	0.8	-5	0	0.8
CCN(C(=O)COC(=O)c1cc(-c2ccc3cc(OC)ccc3c2)nc2ccccc12)C1CCS(=O)(=O)C1 (stereo not given)	?	/	2.1	5	-336	17	15	-6.1
CC(C)(C)NCc1ccccc1OCc1cccs1	0.4	18	1.3	-38	2.8	2	7	0.2

# 3 entries out of the list above, sorted by the value under RanGTP-Imp inh, lowest first.
Molecule,RanGTP-Imp inh,Beta2AR agonist,LANA-H2B inh,UCH37 inh
COC(=O)C1=C(C(=O)OC)[C@@H]2N(Cc3ccccc3)c3ccccc3[C@@]23C[C@@H](C(=O)OC)N(C(=O)c2ccc(Br)cc2)C3=N1,-6.4,2,-1.7,3.7
Cc1cc(NC(=O)CSc2nnnn2-c2cc(Cl)ccc2C)no1,-2.1,-2,2.6,0.8
CC(C)(C)NCc1ccccc1OCc1cccs1,0.4,18,1.3,2.8

# The listing continues.
mol	RanGTP-Imp inh	Beta2AR agonist	LANA-H2B inh	Calb FLC	UCH37 inh	Beta cell apopt	T cruzi repl	Bfl-1 A1 inh
CS(=O)(=O)N(CCC#N)Cc1ccc(C=O)o1	1.4	-4	3.2	-18	3.3	-4	-19	0.5
O=C(O)c1cccc(NS(=O)(=O)c2cc(S(=O)(=O)c3ccc(Cl)cc3)ccc2Cl)c1	-2.8	15	-5.6	0	-0.1	-1	-8	-0.7
CCc1cc(=O)oc2cc(C)cc(OCC(=O)NCCCn3ccnc3)c12	2.9	3	-1.1	-9	-119	0	-11	-0.2
O=C(Cc1cccs1)Nc1nc(-c2cccnc2)cs1	-0.1	4	1.6	3	7.1	-3	-1	-0.6
CCCn1ncc(CN2CCC(CO)(CC3CCCCO3)CC2)c1C (stereo not given)	-1.9	-1	1.1	-9	5.2	-6	-1	0.9
Cc1noc(C)c1S(=O)(=O)Nc1ccc(C(=O)Nc2ccc(OC(F)(F)F)cc2)cc1	-0.3	15	1.3	6	3.8	7	5	-0.7
CCc1nc(SCC(=O)NCCc2ccccc2)c2oc3ccccc3c2n1	2.0	-15	3.1	16	0.0	1	13	-0.5
COc1cc(C(=O)Nc2ccc3c(c2)CCN3C(C)=O)cc(OC)c1OC	2.3	-6	-6.1	-2	5.8	11	-4	0.0
COc1ccc(-c2sc3ccccc3c2/C=C/c2ccc(OC)c(OC)c2)cc1	/	-1	-1.3	/	-46	3	/	1.0
Cc1cc(=O)[nH]c(Nc2ccc(N(C)C)cc2)n1	-0.1	2	1.7	3	2.0	-2	-11	1.2
Cc1ccc(S(=O)(=O)NCCC(=O)Nc2cc(S(=O)(=O)N(C)C)ccc2C)cc1C	1.7	-9	0.5	-4	0.8	-2	-11	0.4
Cc1cccc(S(=O)(=O)Nc2cccc3c2C(=O)c2ccccc2-3)c1	-8.3	5	-0.9	2	1.4	-5	-3	0.6
COc1ccc(C(=O)Nc2ccccc2C(=O)N/N=C/c2ccccc2OC)cc1	-1.7	14	3.9	-18	/	5	-1	-3.5
CCc1nnc(NC(=O)CSc2nc(C)cc(C)c2C#N)s1	3.6	-2	-3.2	22	/	4	-1	-1.7
Cc1c(N2C(=O)/C(=C3/C(=O)N(C)c4ccccc43)SC2=S)c(=O)n(-c2ccccc2)n1C	-1.6	5	-0.6	-1	5.1	-7	-14	-0.3
Cn1c(=O)c2c(ncn2CC(=O)Nc2ccc(N3CCOCC3)cc2)n(C)c1=O	0.5	1	-4.7	3	0.8	-10	-7	-0.3
O=C(CCS(=O)(=O)c1ccccc1)Nc1nc(-c2cccs2)cs1	6.8	14	-1.9	-8	2.6	-12	-125	0.5
O=C(NCCc1ccc2c(c1)OCCO2)c1cccc(S(=O)(=O)N2CCCC2)c1	/	-5	0.9	/	/	-1	/	-1.2
CN1C[C@@H]2C(c3ccccc3)C3(c4ccccc4)CC2(C3)[C@H]1c1ccccc1 (stereo not given in full)	-1.5	1	0.5	110*	1.3	0	20	-0.2
O=C(c1ccccc1[N+](=O)[O-])N1CCN(c2ccc(N3CCOCC3)nn2)CC1	0.0	9	0.0	1	4.7	-2	-5	0.7
CN(C)N1C(N)=C(C#N)C(c2ccc(F)cc2)C2=C1CC(C)(C)CC2=O (stereo not given)	-2.5	6	-1.9	-9	-1.3	9	4	-0.1
CN(C)Cc1nc2ccccc2c(=O)n1Cc1nc(-c2cc3ccccc3o2)cs1	-1.2	24	3.9	-8	3.7	3	65*	0.3
CC1=CC(C)(C)N(C(=O)c2ccccc2)c2ccccc21	-5.1	5	2.0	-18	2.4	-2	4	-1.6
COC(=O)CSc1nc2ccc(C)cc2cc1C#N	-2.4	-20	-0.3	39	-0.3	/	12	-1.8

# Full records as entered above:
# CN1C[C@@H]2C(c3ccccc3)C3(c4ccccc4)CC2(C3)[C@H]1c1ccccc1 (stereo not given in full) is listed as RanGTP-Imp inh: -1.5; Beta2AR agonist: 1; LANA-H2B inh: 0.5; Calb FLC: 110*; UCH37 inh: 1.3; Beta cell apopt: 0; T cruzi repl: 20; Bfl-1 A1 inh: -0.2
# CN(C)N1C(N)=C(C#N)C(c2ccc(F)cc2)C2=C1CC(C)(C)CC2=O (stereo not given) is listed as RanGTP-Imp inh: -2.5; Beta2AR agonist: 6; LANA-H2B inh: -1.9; Calb FLC: -9; UCH37 inh: -1.3; Beta cell apopt: 9; T cruzi repl: 4; Bfl-1 A1 inh: -0.1

# Later entries.
mol	RanGTP-Imp inh	Beta2AR agonist	LANA-H2B inh	Calb FLC	UCH37 inh	Beta cell apopt	T cruzi repl	Bfl-1 A1 inh
CCOC(=O)c1ccc2c(c1)NCc1cccc(OC)c1O2	-2.4	-11	0.2	-10	/	/	6	-2.1
O=C(CSc1ccccn1)c1ccc(F)cc1	-3.9	-4	4.6	31	4.4	4	-12	-0.1
Cc1ccc(/C=N/NC(=O)Cn2nc(C)c([N+](=O)[O-])c2C)o1	28	-3	-1.7	2	/	1	-9	0.2
NCCOc1ccccc1OCCN	2.6	7	-0.1	-7	1.5	0	-20	-0.1
COc1cc(CN2CCCC(C(=O)c3ccccc3SC)C2)cc(OC)c1 (stereo not given)	-2.2	-7	-1.3	-12	0.9	-2	68*	0.2
CCc1ccc(OCc2nc(-c3ccccn3)no2)c(Br)c1	-3.0	-17	5.2	-9	2.2	-1	35	-6.0
CC(=O)N(/N=C1\Sc2ccccc2C1=O)c1ccc(C)cc1C	3.4	-48	1.3	-4	/	-2	-16	0.3
Cc1ccc(CN2CC(C(=O)N3CCN(S(=O)(=O)c4ccc(C(C)C)cc4)CC3)CC2=O)cc1 (stereo not given)	-2.2	0	-1.3	0	-1.7	7	-11	-0.1
COC(=O)Cc1ccc(NC(=S)NCc2ccc(OC)cc2)cc1	-1.8	-2	-1.7	-6	-0.9	0	11	-0.9
CC(=O)Nc1ccc(NC(=O)c2ccc(N(C)S(=O)(=O)c3ccc(C)cc3)cc2)cc1	3.5	6	-4.2	-4	-24	7	8	0.1
COc1ccc(C2CC(c3ccccc3)=NN2C(=O)COC(=O)c2cc(S(=O)(=O)N3CCOCC3)ccc2Cl)cc1 (stereo not given)	-1.1	-2	-0.4	-40	1.6	-17	32	0.8
CC(=O)CCc1c(C)[nH]c2ccccc2c1=O	-1.2	0	2.2	6	2.3	-3	-5	0.3
COCCn1c(=NC(=O)/C=C/c2cccs2)sc2cc(NC(C)=O)ccc21	-0.4	-7	5.1	35	-100	-2	39	-0.7
CCCCc1c(C)nc2ccccc2c1SCCC(=O)O	0.5	13	1.0	17	3.0	2	3	-0.9
c1ccc(CCNC2=NCCCS2)cc1	3.9	0	1.9	8	-0.4	-1	29	0.8
C[C@H](NC(=O)OC(C)(C)C)c1nnc(SCC(=O)Nc2cccc(Cl)c2)o1	3.6	-1	2.0	-17	-1.3	-6	-7	0.6
COc1ccc(N2CCN(C(CNC(=O)C(=O)NCCCn3ccnc3)c3cccnc3)CC2)cc1 (stereo not given)	-2.4	0	0.0	-21	0.4	1	63*	0.3
COc1ccc(NC(=O)CCN2CCN(S(=O)(=O)c3cc(Cl)ccc3Cl)CC2)cc1	-1.1	-4	-4.1	3	3.0	9	10	0.4
O=C(OCc1ccccn1)C1CCN(C(=O)c2ccc(Cl)cc2)CC1	?	1	-4.1	7	2.6	0	-4	-0.3
COc1ccc(C(=O)Nc2ccc(NC(=O)c3ccccc3OC)nc2)cc1	-0.5	9	3.5	-3	-28	-6	3	-0.6
O=C(c1cccc(-n2cccc2)c1)N1CCN(S(=O)(=O)c2c(F)cccc2F)CC1	-1.9	-3	-2.0	0	2.5	-6	4	0.8
CN(CCc1ccccn1)C(=S)Nc1ccc(Cl)cc1Cl	0.5	33	2.9	4	1.8	-1	-5	-0.1
COc1ccc(OCCSc2nnc(-c3ccc(OC)cc3)n2N)cc1	1.5	-4	-3.8	-14	3.1	1	8	1.5
CC(C)(C)OC(=O)N1CCC[C@H]1c1nnc(SCc2ccccc2F)o1	7.4	-2	7.1	-7	-3.6	/	22	0.9
CCOCCCNC(=O)c1ccc(OC2CCN(C(C)=O)CC2)c(OC)c1	-2.0	-3	2.8	4	3.3	-7	-13	-1.0
CC(Oc1ccc(-c2ccccc2)c(F)c1)c1ccn(S(=O)(=O)c2ccc(Br)cc2)n1 (stereo not given)	-3.1	-6	1.9	10	3.3	23	11	0.0
Cn1c(SCC(=O)Nc2ccc(NC(=O)c3cccc(F)c3)cc2)nnc1-c1ccncc1	-0.3	8	-3.3	-3	-1.0	-6	5	0.2
Cc1ccnc(NC(=O)C2CCN(S(=O)(=O)c3ccc4c(c3)CC(C)N4C(=O)C3CCC3)CC2)c1 (stereo not given)	-1.0	-10	1.0	10	3.1	1	9	-0.2
CCN1C(=O)[C@H]2[C@@H](c3ccc(C)cc3)N3C(=O)N(c4cccc(Cl)c4)C(=O)[C@@]3(CC(C)C)[C@H]2C1=O	-2.1	-3	0.5	5	-0.3	-2	1	-0.2
COC(=O)COc1ccc2cc(-c3ccccc3)c(=O)oc2c1	?	2	1.8	11	i	-7	-24	-9.7
CCN(c1ccccc1)S(=O)(=O)c1cc(NC(=O)COC(=O)C2CC2)ccc1Cl	1.5	-2	-6.2	4	2.2	-12	0	0.6

# Compounds were not picked by outcome (roughly 4.3% active in at least one column).
